Mtb bLac sens: beta-lactam sensitization of Mtb H37Rv, H37Rv; inhibition, % at 25 µM; M. tuberculosis H37Rv growth with meropenem, percent inhibition; hits of this screen are not shown here; 330,000 compounds, 0.27% hits;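 active means about 74% or more and at least 40 points above the plate without the antibiotic, then above 30% in a dose series; inconclusive means first-round hits that could not be retested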;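 further: growth measured after seven days incubation then overnight dye step; 0% = bacteria only wells and 100% = bacteria with antibiotic; twin plates without the antibiotic show which effects depend on it; some results filed as inactive read as strong as hits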
Mtb growth: M. tuberculosis H37Rv growth inhibitors, H37Rv strain (AID 1626); M. tuberculosis H37Rv growth inhibition; higher % means a stronger effect; inhibition, % at 10 µM; hits with a dose series show IC50 in µM; 220,000 compounds, 0.95% hits;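 active means confirmed in a dose series; inconclusive means inhibition above 80% but not taken into the dose series; inactive means below 80% or under 30% at every dose of the series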;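 further: bacteria incubated seven days before Alamar blue readout; 0% = bacteria only wells and 100% = bacteria with antibiotic wells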
Arbovirus anti: antivirals against arbovirus infection, primary screen, cell-based, full library, 10K replicate subset; inhibition, % at 10 µM; arbovirus infection cell-based antiviral screen; AID 1251, 2008; 200,000 compounds, 0.37% hits;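 active means inhibition from about 30%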;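 further: bluetongue infection of BSR cells; cell survival read as ATP light after 72 h; 0% = infected wells without compound and 100% = uninfected wells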
YopH inh: YopH tyrosine phosphatase inhibitors, primary screen, biochemical, fluorescence Ex485/Em525 | YopH tyrosine phosphatase [Yersinia enterocolitica] | inhibition, %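 (about 10 µM by stock and volumes)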 | 140,000 compounds, 0.16% hits;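 active means inhibition of 50% or more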;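 further: controls were vehicle for no effect and minimum signal wells for full effect; inactives centre near -20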
RecA splice inh: Mtb RecA intein splicing inhibitors, primary screen, biochemical, fluorescence, HTS; cell-free RecA intein splicing; inhibition, %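 (about 9 µM by stock and volumes)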; 290,000 compounds, 0.75% hits; AID 2221, 2009; in the data active means inhibition above about 30%; inconclusive means no clear call, values can overlap the other calls;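 further: 0% = vehicle wells and 100% = reference inhibitor control wells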
Target sequence (P9WHJ3 whole entry, looked up, canonical isoform): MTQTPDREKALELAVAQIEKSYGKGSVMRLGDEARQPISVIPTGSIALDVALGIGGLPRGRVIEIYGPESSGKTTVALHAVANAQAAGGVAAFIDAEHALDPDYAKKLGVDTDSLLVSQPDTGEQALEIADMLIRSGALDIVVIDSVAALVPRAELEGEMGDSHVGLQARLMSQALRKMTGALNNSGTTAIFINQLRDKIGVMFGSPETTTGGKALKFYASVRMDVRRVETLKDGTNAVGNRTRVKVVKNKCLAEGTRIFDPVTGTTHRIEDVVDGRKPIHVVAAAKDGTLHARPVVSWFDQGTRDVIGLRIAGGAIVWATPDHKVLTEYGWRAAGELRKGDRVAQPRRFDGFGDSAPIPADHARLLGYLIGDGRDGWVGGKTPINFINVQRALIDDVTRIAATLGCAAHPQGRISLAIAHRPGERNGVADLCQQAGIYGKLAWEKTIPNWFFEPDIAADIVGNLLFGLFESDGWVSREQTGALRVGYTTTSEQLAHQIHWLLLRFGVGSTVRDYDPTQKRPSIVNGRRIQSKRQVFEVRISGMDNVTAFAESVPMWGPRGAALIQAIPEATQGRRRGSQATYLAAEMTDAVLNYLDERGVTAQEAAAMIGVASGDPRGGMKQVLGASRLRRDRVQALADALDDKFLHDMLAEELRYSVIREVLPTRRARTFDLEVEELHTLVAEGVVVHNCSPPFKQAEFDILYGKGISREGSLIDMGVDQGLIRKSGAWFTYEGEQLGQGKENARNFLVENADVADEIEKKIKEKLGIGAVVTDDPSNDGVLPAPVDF
Arbovirus anti repeat: second read-out of Arbovirus anti, no call of its own (marks repeat the call); inhibition, %; measured here: 10K subset replicate screen; many hits read low in the repeat;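 first of two repeat runs on a subset; 0% = infected and 100% = uninfected wells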
An asterisk follows results filed as active; ? = inconclusive; . = no result given. A portion of the library. The share of hits here may be higher or lower than overall.

SMILES	Mtb bLac sens	Mtb growth	Arbovirus anti	YopH inh	RecA splice inh	others
COC(=O)c1c(C(=O)NCc2ccccc2)ncn1CC(O)COc1ccccc1 (centres undefined)	4	4%	2	-12	2.7
CCN(C(=O)c1ccc2c(c1)OCO2)C1CCS(=O)(=O)C1 (centres undefined)	-7	.	.	.	0.3
COCc1c(C(=O)N/N=C\c2cccnc2)nnn1-c1nonc1N	2	.	.	.	-2.7
Cc1ccc(N/C=C(/C#N)c2ccsc2)cc1	92	9%	-2	-15	5.0
COc1ccc(/C=C2\N=C(c3c(-c4ccccc4)noc3C)OC2=O)cc1OC	3	.	7	2	-3.5
CCOc1ccc2[nH]c(=O)c(C(c3nnnn3C3CCCCC3)N3CCN(C)CC3)cc2c1 (centres undefined)	5	.	8	-15	.
CC(C(=O)N=Nc1c(O)n(C)c2ccc(Br)cc12)n1cnc2ccccc2c1=O (centres undefined)	1	0%	-8	.	-0.9
CN1CCN(Cc2c(O)ccc3c(-c4ccccc4)cc(=O)oc23)CC1	?	1%	8	-30	-45
CC(=O)c1ccc(Nc2ncnc3c2oc2ccccc23)cc1	-3	-1%	-3	-13	-8.5
CN(C(=S)NC(=O)C1(C)CC1(Cl)Cl)c1ccccc1 (centres undefined)	18	.	-2	-20	2.4
CCN(CC(=O)Nc1ccccc1C(F)(F)F)C(=O)c1cccc(S(=O)(=O)N2CCN(C)CC2)c1	-13	.	.	.	-2.0
O=C(CCS(=O)(=O)Cc1ccccc1)N1CCc2ccccc2C1	-6	-2%	5	-30	.
CC(=O)Nc1cc(S(=O)(=O)C(F)(F)F)ccc1Cl	3	-15%	1	-21	-3.3
O=C(Nc1cc(Br)ccc1O)c1cnn2c(C(F)F)cc(C3CC3)nc12	0	16%	3	.	-1.6
COc1ccc(CC(=O)Nc2nc(-c3cc(OC)ccc3OC)cs2)cc1	73	9%	-15	.	11
Cc1ncc([N+](=O)[O-])n1Cc1cccc(F)c1	2	-5%	0	.	-6.1
CCOC(=O)N1CCC(NC(=O)c2ccc3c(c2)N(Cc2ccccc2)CCS3)CC1	4	5%	21	-34	-3.4
COc1ccc(S(=O)(=O)Nc2cccc(-c3ccc(N4CCCCCC4)nn3)c2)cc1OC	2	.	.	.	8.3
O=C(COC(=O)c1cncc(Br)c1)NCc1ccc(Cl)cc1	-3	.	.	.	-1.5
C[C@@H](C(=O)Nc1ccc2ccccc2c1)[C@H]1C[C@]1(C)[C@H](NC(=O)OCc1ccccc1)c1ccccc1	-5	8%	5	-9	11
CCc1nc(SCC(=O)Nc2nnc(CC)s2)c2c(=O)n(C)c(=O)n(C)c2n1	4	.	.	.	-1.8
O=C1CNC(=S)N1CCOc1ccccc1	-2	-7%	.	.	0.6
CCn1cc(C(=O)NCCC(C)C)c(=O)c2cc(S(=O)(=O)N3CCCCC3)ccc21	-1	.	.	.	11
COc1cc(C(=O)NCc2nnc(SCC(=O)Nc3c(C)cc(C)cc3C)o2)cc(OC)c1OC	3	.	.	.	-2.3
Cc1noc(C)c1S(=O)(=O)NCc1ccc2c(c1)OCO2	-1	-5%	5	-37	0.9	Arbovirus anti repeat=0
O=C1c2ccccc2C(=O)C1(CO)c1ccc(OC(F)F)cc1	-3	.	.	.	0.2
C=CCn1c(SCC(=O)Nc2ccccc2OC)nnc1-c1ccco1	.	3%	-1	-24	-0.2
O=C(NCC(=O)N1CCN(c2ccccc2O)CC1)c1cccs1	-7	.	.	.	-4.4
Cn1cc(Br)c(C(=O)N2CCc3ccccc32)n1	2	-2%	-2	-32	1.9
Cc1ccc(S(=O)(=O)N2CCC(C(=O)Nc3ccncc3)CC2)cc1	0	.	.	.	0.5
CC(C)(C)C(=O)NC(=S)N1CCc2ccccc21	5	1%	-13	.	1.5
CN(Cc1ccccc1)c1ncnc2sccc12	-5	.	.	.	3.9
CC1CCN(c2nc3c(c(=O)[nH]c(=O)n3C)n2CCSc2nc3ccccc3o2)CC1	.	-1%	-1	-7	-3.0
COc1ccccc1NS(=O)(=O)c1cccc(NC(=O)NCCCl)c1	-7	-2%	.	.	2.5
CSCC[C@H](NC(=O)[C@@H]1Cc2ccccc2CN1)C(=O)NC1CCCC1	-6	.	.	.	0.1
Cc1nn(C)c(Cl)c1S(=O)(=O)N[C@@H](c1ccccc1)[C@]1(C)C[C@H]1[C@@H](C)C(=O)Nc1ccc2ccccc2c1	-7	21%	-10	0	.
COc1cc(SC)ccc1C(=O)Nc1ccc(C)cc1	91	-3%	2	.	-0.9
CCNc1oc(COc2ccccc2F)nc1C#N	-10	-3%	-2	-23	-2.1
Brc1ccccc1-c1nnc(COc2ncnc3ccccc23)o1	-7	-4%	.	.	0.3
CCCCn1c(C23CC4CC(CC(C4)C2)C3)n[nH]c1=S	-1	.	.	.	1.5
COCCn1nnnc1C(C(C)C)N1CCCC(C)C1 (centres undefined)	5	-4%	4	.	-1.8
C/C(=N\NC(=O)c1ccc(Cl)cc1)c1ccc2[nH]ccc2c1	9	.	.	.	-2.0
CCCOc1ccc(-c2c(C(=O)N/N=C/c3ccccc3)nnn2-c2nonc2N)cc1	6	-3%	.	.	-2.4
COc1ccc(-n2nc(C(=O)NCC(=O)NCCCN3CCN(C)CC3)c3ccccc3c2=O)cc1	2	.	.	.	-0.4
CC1(CCc2ccccc2)NC(=O)N(CC(=O)Nc2ccc3c(c2)OCCO3)C1=O (centres undefined)	-8	16%	19	.	-0.4
CC(=O)/C(N)=N/Nc1cccc(Cl)c1	92	?	-32	1	-3.9
O=c1c2c(nc3cc(-c4ccccc4Cl)[nH]n13)CCS2	12	5%	7	.	1.7
CCN1CCN(Cc2c(OC)ccc3ccccc23)CC1	4	1%	4	-45	2.2
CC1C(c2ccccc2)N(C)CCC12NC(=O)NC2=O (centres undefined)	-11	-5%	2	-40	0.9
NC(=O)COc1ccc(Nc2nnc(-c3ccc(O)cc3)c3ccccc23)cc1	24	3%	.	.	4.4
CCCCn1c(N)c(N(Cc2ccccc2OC)C(=O)c2ccc(N3CCCC3=O)cc2)c(=O)[nH]c1=O	0	.	.	.	-0.6
O=C(NCC(c1ccc(F)cc1)N1CCOCC1)c1cc(F)c(F)c(F)c1F (centres undefined)	1	5%	0	.	2.4
CCOC(=O)C(CSCC(=O)c1ccc(Br)cc1)NC(=O)OC(C)(C)C (centres undefined)	-1	-12%	-1	-2	1.7
COCCN(CC(=O)NCC1CCCO1)C(=O)CCC(=O)Nc1cc(C)ccn1 (centres undefined)	-10	-10%	1	-5	0.4
Cc1cc(C(F)F)n2nc(C(=O)Nc3cccc(C(F)(F)F)c3)nc2n1	-5	-9%	-8	-21	-1.1
O=C(CCCc1ccccc1)Nc1ccnn1C1CCN(Cc2ccc(Cl)cc2)CC1	82	.	.	.	1.5
CCOc1cccc(Oc2ccc(C(F)(F)F)cn2)c1	3	-5%	0	1	2.5
CC(=O)NS(=O)(=O)c1ccccc1	-6	-10%	3	-45	1.7
c1cc[n+](CCCC[n+]2ccccc2)cc1	-1	.	.	.	-4.7
CCOC(=O)N1CCN(CC(=O)Nc2ccc(Oc3ccccc3)cc2)CC1	47	.	-15	9	5.7

Structures listed so far that contain a furan ring, fused or not:
SMILES	Mtb bLac sens	Mtb growth	Arbovirus anti	YopH inh	RecA splice inh	others
CC(=O)c1ccc(Nc2ncnc3c2oc2ccccc23)cc1	-3	-1%	-3	-13	-8.5
C=CCn1c(SCC(=O)Nc2ccccc2OC)nnc1-c1ccco1	.	3%	-1	-24	-0.2

(further entries)
SMILES	Mtb bLac sens	Mtb growth	Arbovirus anti	YopH inh	RecA splice inh	others
C=CCN(CC(=O)Nc1c(C)cccc1CC)C(=O)SCCC	-11	-10%	-3	-10	-0.5
CNc1cc(C(F)(F)F)nc(-c2ccccn2)n1	89	41µM*	2	1	-0.8
COC(=O)Cc1c(O)ccn(Cc2ccc3c(c2)OCO3)c1=O	4	2%	1	.	0.7
COc1ccc(OC(=O)NCCc2ccccc2)cc1	-2	-3%	.	.	-0.4
CCOc1ccccc1OCc1nn2c(-c3ccc(C)cc3)nnc2s1	66	?	-5	-53	8.1
CCc1c(C)[nH]c2ccccc2c1=O	-3	-8%	-2	-15	.
S=C(Nc1ccc(Br)cc1Cl)N1CCCC1	-4	.	.	.	-3.0
CSc1nc2c(c(=O)[nH]1)C(c1ccc(C(F)(F)F)cc1)CC(=O)N2 (centres undefined)	-3	-13%	4	.	-1.2
O=C(CCCNC(=O)/C(=C/c1ccc(Br)cc1)NC(=O)c1ccccc1)OCc1ccccc1	-3	1%	-1	-22	0.3
Cc1ccc(NC(=O)C2CCN(c3cnccn3)CC2)cc1	-3	-9%	-3	.	-0.7
COc1cccc(-n2nnnc2SCC(=O)Nc2ccc(C(C)=O)cc2)c1	2	0%	4	-11	-1.1
CC(C)c1ccc(/C=C/C2=NNC(=O)CC2)cc1	10	35%	-10	.	-1.5
COc1ccc([N+](=O)[O-])cc1NC(=O)Cc1noc2ccc(C)cc12	-8	4%	0	.	0.1
Cc1ccc(NC(=O)COC(=O)Cc2ccsc2)cc1S(=O)(=O)N1CCOCC1	10	1%	6	-21	0.5
Cc1cccc(NC(=O)C2CC(=O)OC23CCCCC3)c1 (centres undefined)	-4	4%	-1	0	-0.5
O=C(Nc1ccc(OC(F)(F)C(F)F)c(NC(=O)c2ccc(F)cc2)c1)c1ccc(F)cc1	-3	-1%	.	-11	-11
O=[n+]1c2c(n([O-])c3cc(F)c(N4CCCC4)cc31)CCCC2	-4	6%	1	-31	-29

Molecules listed so far containing a Cl atom (10):
SMILES	Mtb bLac sens	Mtb growth	Arbovirus anti	YopH inh	RecA splice inh	others
CN(C(=S)NC(=O)C1(C)CC1(Cl)Cl)c1ccccc1 (centres undefined)	18	.	-2	-20	2.4
CC(=O)Nc1cc(S(=O)(=O)C(F)(F)F)ccc1Cl	3	-15%	1	-21	-3.3
O=C(COC(=O)c1cncc(Br)c1)NCc1ccc(Cl)cc1	-3	.	.	.	-1.5
COc1ccccc1NS(=O)(=O)c1cccc(NC(=O)NCCCl)c1	-7	-2%	.	.	2.5
Cc1nn(C)c(Cl)c1S(=O)(=O)N[C@@H](c1ccccc1)[C@]1(C)C[C@H]1[C@@H](C)C(=O)Nc1ccc2ccccc2c1	-7	21%	-10	0	.
C/C(=N\NC(=O)c1ccc(Cl)cc1)c1ccc2[nH]ccc2c1	9	.	.	.	-2.0
CC(=O)/C(N)=N/Nc1cccc(Cl)c1	92	?	-32	1	-3.9
O=c1c2c(nc3cc(-c4ccccc4Cl)[nH]n13)CCS2	12	5%	7	.	1.7
O=C(CCCc1ccccc1)Nc1ccnn1C1CCN(Cc2ccc(Cl)cc2)CC1	82	.	.	.	1.5
S=C(Nc1ccc(Br)cc1Cl)N1CCCC1	-4	.	.	.	-3.0

Compound activity from PubChem BioAssay.
